Screening results from PubChem BioAssay.
gsp agonist: agonists of gsp mutant (McCune-Albright syndrome); 0.13% of 340,000 active; gsp mutant cells, cAMP HTRF, 30 min; control for the full effect not named in the record; Potency, µM (highest dose often 76.9 µM), inactives show at the highest dose activation (cAMP increase), usual class: activators; active = well fitted activation curve with a large enough effect; inconclusive = small, poorly fitted or top-dose-only effect, or another doubt; inactive = no such curve, though single readings can be large or run the other way; cell line not stated here;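 further: phosphodiesterase inhibitor Ro 20-1724 added with compounds to block cAMP breakdown; potency means the concentration at half of the fitted maximal effect; nearly all actives have a fitted effect of over 60% in size; about a fifth of the inactives were tested at one dose only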
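Cells in DMEM/10% FBS with G418 were pretreated with compounds in DMSO plus […] (300 uM stock) for 30 min at 37C. cAMP was measured by HTRF (cAMP-d2 plus anti-cAMP antibody-K) after 30 min at room temperature.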
D2 PAM: positive allosteric modulators of human D2 dopamine receptor. P14416. DiscoveRx D2 beta-arrestin cells, luminescence, 90 min; 100% = 57 uM dopamine signal. potentiation, % (test concentration not listed). 0.23% of 360,000 active. AID 624464; active = potentiation of 50% or more; inconclusive = 30% to 50%; inactive = 30% or less;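 further: compound concentration not given in the record; tested on top of an EC20 dose of dopamine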
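PathHunter beta-arrestin assay in DiscoveRx D2 cells. Compounds were added with an EC20 of dopamine (50 nM final) for 90 min at 37 deg C. Luminescence was read 1 h after detection reagent, with 57 uM dopamine as the EC100 control.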
D2 agonist: agonists of human D2 dopamine receptor (beta-arrestin). P14416. DiscoveRx PathHunter D2 beta-arrestin, luminescence, 90 min; 100% = 57 uM dopamine signal. activation, % (concentration not given with the values). 0.084% of 360,000 active. AID 624465; in the data active = activation above about 40%; inconclusive = about 15% to 40%; inactive = below about 15%; further: compound concentration not given in the record; the text of the record calls up to 30% inactive
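Agonist mode: compounds alone added to overnight-plated D2 PathHunter cells for 90 min at 37 C, with 57 uM final dopamine (EC100) defining full response. Beta-arrestin recruitment detected by chemiluminescent reagent, read after 1 h at ambient temperature.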
Six1-Eya2 blk: inhibitors of human Six1/Eya2 interaction. Q15475+O00167. AlphaScreen GST-Six1/His-Eya2 binding, biochemical; hits give low values; control for the full effect not named in the record. activity change, % (test concentration not listed). 0.56% of 360,000 active; in the data active = activity change below about -65%; inconclusive = about -30% to -65%; inactive = above about -30%; further: on the % scale 0 is the no-effect control and ±100 the full control effect; compound concentration not given in the record
Target sequence (O00167 whole entry, looked up): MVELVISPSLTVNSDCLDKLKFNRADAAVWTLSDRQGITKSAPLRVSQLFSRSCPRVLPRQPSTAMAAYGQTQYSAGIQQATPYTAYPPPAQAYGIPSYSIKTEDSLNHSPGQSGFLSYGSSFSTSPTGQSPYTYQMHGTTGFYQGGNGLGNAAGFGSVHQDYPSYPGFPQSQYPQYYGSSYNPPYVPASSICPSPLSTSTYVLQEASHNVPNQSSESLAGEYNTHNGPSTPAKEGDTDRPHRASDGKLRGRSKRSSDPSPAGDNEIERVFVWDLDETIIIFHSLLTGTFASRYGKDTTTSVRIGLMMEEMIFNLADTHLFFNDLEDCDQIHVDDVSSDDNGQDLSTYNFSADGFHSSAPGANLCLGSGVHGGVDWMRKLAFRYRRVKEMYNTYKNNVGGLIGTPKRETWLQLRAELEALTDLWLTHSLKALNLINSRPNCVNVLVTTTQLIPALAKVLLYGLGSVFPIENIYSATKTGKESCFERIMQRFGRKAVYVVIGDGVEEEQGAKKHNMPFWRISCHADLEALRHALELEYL
Target sequence (Q15475 whole entry, looked up): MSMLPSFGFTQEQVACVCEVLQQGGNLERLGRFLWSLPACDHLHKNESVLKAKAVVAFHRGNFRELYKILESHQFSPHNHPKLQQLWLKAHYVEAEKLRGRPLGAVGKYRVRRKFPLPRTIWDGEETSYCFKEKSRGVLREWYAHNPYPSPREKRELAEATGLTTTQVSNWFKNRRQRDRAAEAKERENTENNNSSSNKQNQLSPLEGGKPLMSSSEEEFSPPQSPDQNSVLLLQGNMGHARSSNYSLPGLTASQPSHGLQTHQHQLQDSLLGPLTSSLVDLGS
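AlphaScreen with GST-Six1 and His-Eya2 (5X mix: 250 nM and 500 nM), glutathione donor and nickel acceptor beads; buffer 50 mM Tris pH 8.0, 300 mM NaCl, 1 mM TCEP; 1 h at 37 C in the dark.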
CtBP-E1A blk: CtBP/E1A binding inhibition. AlphaScreen GST-E1A/His-CtBP binding, 1536-well; hits give low values; control for the full effect not named in the record. activity change, % (test concentration not listed). 0.49% of 340,000 active. AID 651724; in the data active means activity change below about -65%; inconclusive means about -30% to -65%; inactive means above about -30%; further: on the % scale 0 is the no-effect control and ±100 the full control effect; compound concentration not given in the record
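AlphaScreen with 125 nM GST-E1A and 125 nM His-CtBP (5X stocks) in Tris pH 8.0, 300 mM NaCl, BSA, Tween 20, TCEP. Compounds preincubated 2 h at 37 deg C, then glutathione donor/nickel acceptor beads added for 1 h at 37 deg C in dark.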
gsp antag: antagonists of gsp mutant (McCune-Albright syndrome); gsp-mutant cells, cAMP HTRF, 30 min; control for the full effect not named in the record; Potency, µM (series often up to 76.9 µM), for the others: at the highest dose activity change, negative = inhibition, actives largely listed as inhibitors; 0.4% of 340,000 active; active = falling curve of any shape with a large fitted effect; inconclusive = falling curve, mostly with a smaller effect; inactive = flat or rising curve; cell line not stated here;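 further: intracellular cAMP measured with PDE inhibitor Ro 20-1724 present during compound exposure; potency means the concentration at half of the fitted maximal effect; on the % scale 0 is the no-effect control and ±100 the full control effect; nearly all actives have a fitted effect of over 65% in size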
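G418-selected cells were plated in DMEM/10% FBS for 16-24 h at 37C, then treated with compounds plus the PDE inhibitor […] (300 uM solution added) for 30 min at 37C. Intracellular cAMP was measured by HTRF after 30 min lysis at room temperature.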
* marks the source's active call; other numbers are inactive results; ? = inconclusive; . = not tested or not shown; [ ] = remark or other dose.

D2 agonist	gsp antag	Compound	D2 PAM	CtBP-E1A blk	gsp agonist	Six1-Eya2 blk
2.6	7%	Cc1ccc(NS(=O)(=O)c2cc3[nH]c(=O)c(=O)[nH]c3cc2C)c(C)c1	1	1	-49%[inhibitor]	-2
1.1	-12%	O=C(/C=C/c1ccc(F)cc1)c1cc(Br)ccc1O	3	16	-1%[15.4 µM]	15
1.6	-1%	O=C(O)COc1cccc2nsnc12	-4	-5	1%	7
-4.6	-10%	CCOC(=O)c1csc(Nc2nc3ccc(F)cc3s2)n1	-18	-2	4%	0
15	?	CCCCN1CC(COCc2ccccc2)Oc2cccc(OCCN3C(=O)[C@@H]4[C@H](C3=O)C3C=C[C@H]4C3)c2S1(=O)=O (stereo not given in full)	28	-7	.	-9
-3.4	-1%	COC(=O)C(CCSC)NC(=O)CNS(=O)(=O)c1ccc(Cl)cc1 (stereo not given)	-4	5	-19%	1
0.7	-3%	C=CCn1nnc2sc3c(c2c1=O)CCC(C)C3 (stereo not given)	13	-2	-16%	20
3.3	2%	COc1ccc(-c2noc3c2-c2nc(-c4ccccc4)sc2CC3)cc1	3	.	-7%	-5
-5.0	-7%	Cc1ccc(S(=O)(=O)c2nc(S(=O)(=O)CCO)sc2N2CCOCC2)cc1	-10	-1	18%	4
1.9	-23%	CSCCC(NC(=O)c1ccc([N+](=O)[O-])cc1Cl)C(=O)OCC(=O)NC1CCCC(C)C1C (stereo not given)	3	4	-13%	-1
-1.8	-1%	COc1ccc(CC(=O)Nc2c3c(nn2-c2cccc(C)c2C)CS(=O)(=O)C3)cc1	-6	-2	-4%	1
?	4%	O=C(COC(=O)c1ccc([N+](=O)[O-])o1)Nc1ccc(Br)cc1F	6	.	-17%	-1
0.1	4%	O=C(CCNC(=O)c1ccco1)Nc1ccccc1N1CCOCC1	-5	10	0%	4
9.0	0%	O=C(c1ccco1)N1CCc2ccccc21	1	.	14%	0
-1.1	-1%	CCn1cc(CCC(=O)NCCN2CCOCC2)c2ccccc21	-8	0	3%[15.4 µM]	13
1.1	3%	CN(C(=O)n1cnc2ccccc21)c1ccccc1	5	14	6%	1
-0.8	12%	Cc1c(Cl)cccc1NC(=S)NC1CCCC1	-17	-2	1%[15.4 µM]	-6
0.0	21%	COc1cccc(C(=O)Nc2ccccc2C(=O)N2CCCC2)c1	-4	10	-21%	2
-5.8	.	Cc1cc2nc(NC(=O)C3(C)CCN(C)C3)[nH]c2cc1C (stereo not given)	-11	-16	.	-1
-0.9	8%	CCCNC(=O)Cn1c(=O)cnc2ccccc21	3	20	?	13
-0.4	-12%	COc1ccc(-c2nnn(Cc3nc(N)nc(N4CCCCC4)n3)n2)cc1	-5	3	5%	-2
-4.1	2%	CC1(C)CC(=O)C(CC(=O)NC2CCCc3ccccc32)C(=O)C1 (stereo not given)	-5	1	-7%[15.4 µM]	2
-2.5	-1%	CN(c1ccc(C(=O)COC(=O)C2CC2)cc1)S(C)(=O)=O	-5	7	-2%	21
3.6	-12%	Clc1c(-c2ccccc2)nnn1-c1ccccc1	-2	29	12%[15.4 µM]	6
-1.6	-2%	Cc1ccc(/C=c2\sc3nc(-c4ccco4)nn3c2=O)o1	-9	1	-32%[inhibitor]	-3
-0.3	?	CCC(C)c1ccc(NC(=O)c2[nH]c(C)c(C(C)=O)c2C)cc1 (stereo not given)	-14	-1	-2%	-13
-0.4	?	COc1ccc2[nH]c3c(c2c1)CCN1C(=O)C(CC(=O)NC(C)(C)C)C[C@H](C(=O)N2CCCCC2)[C@@]31CCc1ccccc1 (stereo not given in full)	-3	2	.	-2
-0.1	2%	COc1cc(-c2noc(C)c2C(=O)NCCc2cccs2)cc(OC)c1OC	-3	1	25%	0
-1.9	13%	Cn1c(=O)c2c(nc(Cl)n2CCOc2ccccc2)n(C)c1=O	-8	-2	19%	3
0.8	2%	CCOC(=O)C1CCCN(C(=O)c2ccc(Cl)cc2)C1 (stereo not given)	-2	7	-5%	-1
-5.6	-6%	O=[N+]([O-])c1ccc2nc(-c3ccccc3[N+](=O)[O-])[nH]c2c1	-4	-12	-2%[15.4 µM]	-7
-1.5	-13%	N#Cc1ccc(/C=C\c2nccc3c2[nH]c2ccccc23)cc1	-14	32	8%[15.4 µM]	17
-0.7	-19%	CC(C)CC(=O)Nc1ccc(C(=O)COc2ccc(-c3nnco3)cc2)cc1	-4	-5	-1%	-1
-7.6	0%	Cc1nc2ccccc2nc(C)c1=NOCc1cccc(Cl)c1	-9	1	-18%	3
6.8	.	Cc1onc(-c2ccccc2)c1C(=O)N/N=C/c1cn(C)c2ccccc12	4	0	1%[15.4 µM]	-4
5.0	-4%	CCN(CC)S(=O)(=O)c1ccc2c(c1)nc(SCC(N)=O)n2-c1ccc(OC)cc1	5	-1	-4%	5
0.1	-23%	O=C(CSc1ncnc2scc(-c3ccccc3)c12)N1CCN(c2ccccc2F)CC1	-16	-11	5%	-13
12	6%	Cc1cc(C)n2nc(C(=O)Nc3c(C)nn(Cc4ccc(F)cc4)c3C)cc2n1	-1	.	-15%	-6
-2.2	2%	CCn1c(SCc2ccccc2Cl)nc2ccccc21	-4	29	7%	53
-0.4	5%	CC(C)CN(C(=O)C1COc2ccccc2O1)c1c(N)n(CC(C)C)c(=O)[nH]c1=O (stereo not given)	0	1	?	2

The final seven records of the section before come first, to join the parts:
D2 agonist	gsp antag	Compound	D2 PAM	CtBP-E1A blk	gsp agonist	Six1-Eya2 blk
-7.6	0%	Cc1nc2ccccc2nc(C)c1=NOCc1cccc(Cl)c1	-9	1	-18%	3
6.8	.	Cc1onc(-c2ccccc2)c1C(=O)N/N=C/c1cn(C)c2ccccc12	4	0	1%[15.4 µM]	-4
5.0	-4%	CCN(CC)S(=O)(=O)c1ccc2c(c1)nc(SCC(N)=O)n2-c1ccc(OC)cc1	5	-1	-4%	5
0.1	-23%	O=C(CSc1ncnc2scc(-c3ccccc3)c12)N1CCN(c2ccccc2F)CC1	-16	-11	5%	-13
12	6%	Cc1cc(C)n2nc(C(=O)Nc3c(C)nn(Cc4ccc(F)cc4)c3C)cc2n1	-1	.	-15%	-6
-2.2	2%	CCn1c(SCc2ccccc2Cl)nc2ccccc21	-4	29	7%	53
-0.4	5%	CC(C)CN(C(=O)C1COc2ccccc2O1)c1c(N)n(CC(C)C)c(=O)[nH]c1=O (stereo not given)	0	1	?	2
0.4	3%	COC(=O)C1C(O)=C(C=NCc2ccccc2)C(=O)CC1(C)C (stereo not given)	11	7	15%	-1
-2.4	.	O=S(=O)(c1ccc(Cl)cc1)n1cccn1	-1	-5	-17%[15.4 µM]	-2
-2.1	12%	O=C(CN1C(=O)NC(Cc2c[nH]c3ccccc23)C1=O)NCCc1ccccc1 (stereo not given)	-4	-3	-7%	5
8.4	-20%	O=C(NCc1cccc(Cl)c1)c1ccc2ccccc2n1	-4	23	13%	8
1.1	8%	CCOC(=O)c1ccc(NC(=S)N(CCCN2CCCC(C)C2)Cc2ccco2)cc1 (stereo not given)	-18	1	0%[15.4 µM]	-13
?	0%	CSc1nsc(/C=C/Nc2ccc(O)cc2C)c1C#N	4	.	?	-4
-7.4	-3%	CCc1cc(=O)oc2cc(C)cc(OCC(C)=O)c12	-2	-5	6%[15.4 µM]	-1
-3.9	-12%	Cc1c(C(=O)N/N=C/c2ccccc2)sc(=S)n1C	-32	19	28%	16
0.3	-14%	CCn1c(=O)cc(SCC(=O)Nc2ccc3c(c2)OCO3)c2ccccc21	-16	-20	?	-17
-2.3	-13%	COc1ccc(C(=O)Nc2ccccc2Cc2ccccc2)c(OC)c1	3	81	29%	104
-0.5	0%	CC(/C=C1\NC(=S)NC1=O)=C\c1ccccc1	23	.	-23%	-1
-3.7	-8%	C=CCOC(=O)C1=C(C)Nc2nnnn2C1c1cccc(OC)c1OC (stereo not given)	-7	-6	35%	-4
-0.4	-21%	CN(c1ccccc1C(=O)Nc1ccc(S(=O)(=O)N2CCCCC2)cc1)S(C)(=O)=O	5	7	-4%	-1
-4.4	21%	N#CCCCCn1c(-c2cncs2)nc2ccccc21	-5	-2	?	-4
11	-17%	Cc1c(C(=O)O)sc2c1c(=O)n(Cc1ccccc1)c(=O)n2C	-1	-5	2%	1
-2.0	3%	Cc1cccc(NS(=O)(=O)c2cccc3nsnc23)c1	-16	-3	?	-5
-1.7	7%	Cc1ccc(CNC(=O)C2CCC(CNS(=O)(=O)c3cccs3)CC2)cc1 (stereo not given)	-5	6	2%	5
-0.8	0%	Cc1cc(C)c(-c2cc(NC(=O)COC(=O)c3ccc(C#N)cc3)n(-c3ccccc3)n2)cc1C	-8	-1	2%	-9
-4.2	-8%	O=C(CSc1oc(-c2cccs2)nc1S(=O)(=O)c1ccc(F)cc1)NCC1CCCO1 (stereo not given)	-4	-3	-32%[inhibitor]	-2
-3.8	-5%	Cc1ccc(OC(C)C(=O)Nc2ccc3c(c2)n(C)c(=O)n3C)cc1C (stereo not given)	-3	-6	-85%[inhibitor]	1
-3.4	8%	Cc1cc(Nc2ccccc2)n(CCO)n1	-16	-3	24%	2
-2.1	-25%	O=C1CC(N2CCN(c3nc4ccccc4s3)CC2)C(=O)N1c1cccc(F)c1 (stereo not given)	-8	1	-3%	-1
-1.6	?	CC(C)CNc1cc(N2CCCC2)ccc1[N+](=O)[O-]	-24	7	-23%	?
-1.0	-2%	N#CCSc1nnc(-c2ccc(S(=O)(=O)N3CCOCC3)cc2)n1CC1CCCO1 (stereo not given)	-12	-9	-44%[inhibitor]	1
-5.3	-16%	COc1ccc2[nH]c(=O)c(CN(CC3CCCO3)C(=S)Nc3ccccc3)cc2c1 (stereo not given)	-4	.	-74%[inhibitor]	-1
2.0	6%	CN(CCO)c1nc(NCc2ccccc2)c2cnn(C)c2n1	-2	.	9%	-5
-0.8	-20%	COc1ccc2nc(NC(=O)C3=NN(c4ccccc4)C(=O)CC3)sc2c1	-6	-12	7%	-14
-4.7	14%	CC(=O)[C@@]1(O)[C@H](C)CC2C3CC=C4CC(OP(=O)(O)O)CC[C@]4(C)C3CC[C@@]21C (stereo not given in full)	-6	.	-23%	-2
-6.0	11%	CCCCCCCC(=O)NNC(=O)CC(=O)Nc1ccccc1C(=O)O	0	4	?	5
-2.8	-12%	COc1ccc(/C=C/C(=O)c2ccc(OC)cc2O)cc1	-18	-22	7%	3
0.5	1%	O=C(Cc1cccs1)N/N=C/c1ccco1	7	-17	?	2
-0.8	-3%	COc1ccc(NCC(=O)Nc2ccc(C#N)cc2)cc1Cl	-4	6	?	-8
0.0	21%	CC(NCc1ccc(S(N)(=O)=O)cc1)C(=O)NCc1ccccc1 (stereo not given)	-4	6	16%	0
